# KCNQ2 block: KCNQ2 channel blockers in CHO-K1 cells – cell-based, FluxOR thallium flux, B-score, primary screen (AID 2156); O88943; 20 min; hits give low values; only compounds with negative scores are shown here; some inactives read as strong as hits; actives 1.1% (n = 310,000); B-score at 10 µM;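 active = fluorescence ratio B-score at most minus 3 library SDs, with starting brightness B-score within 2 library SDs, cut at about -5.5 in these data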
# Target sequence (O88943 whole entry, looked up): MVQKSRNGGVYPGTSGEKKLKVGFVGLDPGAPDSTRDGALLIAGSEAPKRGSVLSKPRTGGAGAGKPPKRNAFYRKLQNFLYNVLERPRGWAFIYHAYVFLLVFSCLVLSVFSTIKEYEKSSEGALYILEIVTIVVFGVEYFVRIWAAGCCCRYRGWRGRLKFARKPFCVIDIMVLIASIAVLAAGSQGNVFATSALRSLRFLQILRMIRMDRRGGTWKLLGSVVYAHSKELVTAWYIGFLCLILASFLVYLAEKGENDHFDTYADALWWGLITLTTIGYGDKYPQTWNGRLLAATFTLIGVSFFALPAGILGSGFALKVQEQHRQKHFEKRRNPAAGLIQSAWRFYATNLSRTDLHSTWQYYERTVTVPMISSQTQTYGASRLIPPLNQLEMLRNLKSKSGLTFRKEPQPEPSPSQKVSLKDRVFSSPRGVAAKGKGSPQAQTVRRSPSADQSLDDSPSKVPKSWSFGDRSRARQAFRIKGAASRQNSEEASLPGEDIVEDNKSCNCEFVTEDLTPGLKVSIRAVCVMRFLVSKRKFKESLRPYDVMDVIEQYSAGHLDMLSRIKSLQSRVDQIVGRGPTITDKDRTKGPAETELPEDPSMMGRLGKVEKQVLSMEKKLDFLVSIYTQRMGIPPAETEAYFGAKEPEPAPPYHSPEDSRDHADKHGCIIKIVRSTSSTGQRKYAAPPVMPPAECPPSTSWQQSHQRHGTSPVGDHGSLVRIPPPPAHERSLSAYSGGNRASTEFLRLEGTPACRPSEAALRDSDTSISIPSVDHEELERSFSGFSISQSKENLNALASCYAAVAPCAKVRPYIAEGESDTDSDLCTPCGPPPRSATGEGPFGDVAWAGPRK
# KCNQ2 block baseline: second read-out of KCNQ2 block, no call of its own (marks repeat the call); B-score; measured here: initial fluorescence intensity artifact check;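 brightness before thallium and not channel activity; 0 = typical well and far values either way flag optical interference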
# Numbers without * were called inactive; i = inactive.
SMILES,KCNQ2 block,KCNQ2 block baseline
O=C1c2cccc3cc([N+](=O)[O-])cc(c23)C(=O)N1/N=C/c1ccc(O)cc1O,i,-0.62
S=C(c1cn(Cc2ccc(Br)cc2)c2ccccc12)N1CCOCC1,i,1.6
CCn1c(=O)c2sccc2n2c(CCCC(=O)NCCc3ccc(S(N)(=O)=O)cc3)nnc12,i,-1.9
COc1cccc(CN2C(=O)CCC2(C)C(=O)NC2CCCCC2)c1 (stereo not drawn),i,1.3
COc1ccc(/C=N/N=C2/NC(=O)C(CC(=O)O)S2)cc1OCc1ccccc1Cl (stereo not drawn),i,-0.66
COc1ccc(NC(=O)c2ccc(CN3CCc4ccccc4C3)cc2)cc1OC,i,1.3
O/C=c1\ccc2cccc3nc(C(F)(F)F)nc1c23,i,9.7
CC(=O)/C(=N\Nc1ccc(Cl)cc1Cl)Sc1nnc(-c2ccccc2)n1-c1ccccc1,i,1.5
N#Cc1sc(NCc2ccccc2)nc1Cl,i,-2.9
CC(C)CCNC(=O)COC(=O)/C=C/c1ccc2ccccc2n1,i,2.2
NC(=O)CN1C(=O)NC2(CCOc3ccccc32)C1=O (stereo not drawn),i,-0.42
O=C(Nc1ccc(Br)cc1)C1CC(O)CN1C(=O)OCc1ccccc1 (stereo not drawn),i,0.27
O=C(COC(=O)c1cc(-c2cccs2)nn1-c1ccccc1)Nc1ccc(F)c([N+](=O)[O-])c1,i,-1.6
O=C(CN1C(=O)NC2(CCCc3ccccc32)C1=O)Nc1cc(F)ccc1F (stereo not drawn),i,-2.3
COc1ccc(-c2nc(CSCC(=O)NCc3ccc4c(c3)OCO4)c(C)o2)cc1OC,i,-0.61
COc1ccc(CNC(=O)C(C#N)c2nc3ccccc3nc2N2CCCC2)cc1 (stereo not drawn),i,0.27
Nc1nonc1-n1nnc(C(=O)N/N=C/c2cccc(F)c2)c1-c1ccc2c(c1)OCO2,i,-0.17
COC(=O)c1ccc(NS(=O)(=O)c2ccc3c(c2)oc(=O)n3C)cc1,i,-0.78
Cc1cc(C)cc(NC(=O)CCNS(=O)(=O)c2ccc3c(c2)oc(=O)n3C)c1,i,2.1
Cc1cc(C2C(C#N)=C(N)OC3=C2C(=O)CC(C)(C)C3)c(C)s1 (stereo not drawn),i,-0.14
CC(C)(C)NC(=O)C(c1ccncc1)N(C(=O)c1csnn1)C1CC1 (stereo not drawn),i,0.39
Cc1ncc(S(=O)(=O)c2ccccc2)c(-c2ccc(Cl)cc2Cl)n1,i,0.03
CC1SCC(NC(=O)c2cccc(Cl)c2)CS1 (stereo not drawn),i,0.01
Cc1csc(NC(=O)CSc2nc(=O)[nH]c3c2CCCC3)n1,i,3
CN(C)CCNC(=O)c1ccc(Sc2ccc(Br)cc2)c([N+](=O)[O-])c1,i,-0.19
CCCCCCCCNC(CO)(CO)CO,i,-0.35
CCn1c(=O)c(NC(=O)c2ccccc2)c2n(c1=S)CCCCC2,i,-0.68
COc1ccc(-n2nnnc2CNC(=O)C2CC(=O)N(c3ccc(Cl)cc3)C2)cc1 (stereo not drawn),i,0.83
COc1ccccc1N1CCN(C(=O)c2ccc(Cl)c(S(=O)(=O)NCc3ccco3)c2)CC1,i,-2
COc1ccc(N2CCN(CCCNC(=O)Cn3c(=O)c4cccn4c4ccccc43)CC2)cc1,i,-0.01
Oc1cccc(-c2nc3ccccc3s2)c1,i,0.23
CCOc1ccc(S(=O)(=O)N2CCC(C(=O)NCc3cccnc3)CC2)cc1,i,1.4
CC(NC(=O)c1nn(C)c(=O)c2ccccc12)c1ccc(F)cc1 (stereo not drawn),i,0.39
CC(C(=O)N1CCN(c2ccccc2)CC1)c1ccc([N+](=O)[O-])cc1 (stereo not drawn),i,-0.19
C/C(=C\C(=O)c1ccc(Br)cc1)Nc1cccc(Cl)c1,-6.2*,-0.12*
O=C(CCN1C(=O)/C(=C/c2ccc3c(c2)OCO3)SC1=S)NNC(=O)c1cccnc1,i,1.9
N#C/C(=C\c1ccc(/C=C(/C#N)c2nn(CCO)c(N)c2C#N)cc1)c1nn(CCO)c(N)c1C#N,i,0.7
CCOc1ccc(-n2cc(-c3ccccc3)c3c(N4CCOCC4)ncnc32)cc1,i,-0.15
COC(=O)c1ccc(NC(=O)CO/N=C2\CCCc3nonc32)cc1,i,2.6
C/C=C/Cn1c(SC)nc2c1c(=O)[nH]c(=O)n2C,i,1.7
Cc1ccc(CNC(=O)C2CCC(=O)N(Cc3cccc(C(F)(F)F)c3)C2)o1 (stereo not drawn),i,-0.64
COc1ccc(C(=O)Nc2cnn(Cc3c(F)cccc3Cl)c2)cc1OC,i,-1.8
Cc1ccc(-n2nnnc2SCC(=O)Nc2cccnc2Cl)cc1,i,0.74
CC(=O)N1CCN(c2ncnc3ccccc23)CC1,i,1.4
COc1ccccc1CNC(=O)C(=O)NCCC1CCCCN1S(=O)(=O)c1ccccc1 (stereo not drawn),i,0.02
O=C(/C=C/c1cccc([N+](=O)[O-])c1)NC(=S)Nc1ccc(CN2CCOCC2)cc1,i,-1.3
CCc1ccccc1NC(=O)C1c2ccccc2Oc2ccccc21,i,-0.53
O=C(c1ccc(CS(=O)c2ccccc2Cl)o1)N1CCN(c2ccccn2)CC1 (stereo not drawn),i,-0.91
O=C(NCc1ccc2c(c1)OCO2)C1(S(=O)(=O)c2ccccc2)CC1,i,-0.87
CCO[C@H]1OC(C(=O)NC2CC2)=C[C@@H](c2ccc(Br)cc2)[C@@H]1CCCO,i,0.96
COc1ccccc1NC(=O)CSc1nnc(-c2ccccc2)o1,i,0.03
CCCC(=O)Nc1c(-c2ccccc2)c(=O)c(C)nn1-c1ccc(Cl)cc1,i,0.07
CCN(CC)S(=O)(=O)c1cccc(NC(=O)c2cc(-c3cccs3)nn2-c2ccccc2)c1,i,1.5
Cc1cccc(CCNC(=O)Cn2ncc3c([nH]c4ccccc43)c2=O)c1,i,0.05
ClCc1nc2ccccc2c2ccccc12,i,-0.19
CCN1CCC(NC(=O)c2cc(OC)c(OC)cc2OC)CC1,i,2.4
O=C(Nc1ccccc1C(=O)O)/C(=C/c1ccc(Cl)cc1Cl)NC(=O)c1ccco1,i,-0.03
O=C(CCCCCN1C(=O)c2ccccc2C1=O)NCCc1nc2ccccc2[nH]1,i,1.9
Cc1ccc(C)c(NCc2ccccc2CO)c1,i,0.1
Cc1ccccc1-c1nsc(SCC(=O)Nc2ccc3c(c2)OCO3)n1,i,0.25

# An excerpt from above in order of formula weight, rising:
SMILES,KCNQ2 block,KCNQ2 block baseline
ClCc1nc2ccccc2c2ccccc12,i,-0.19
CC(=O)N1CCN(c2ncnc3ccccc23)CC1,i,1.4
C/C=C/Cn1c(SC)nc2c1c(=O)[nH]c(=O)n2C,i,1.7
CCN1CCC(NC(=O)c2cc(OC)c(OC)cc2OC)CC1,i,2.4
CCc1ccccc1NC(=O)C1c2ccccc2Oc2ccccc21,i,-0.53
O=C(NCc1ccc2c(c1)OCO2)C1(S(=O)(=O)c2ccccc2)CC1,i,-0.87
Cc1cccc(CCNC(=O)Cn2ncc3c([nH]c4ccccc43)c2=O)c1,i,0.05
Cc1ccc(-n2nnnc2SCC(=O)Nc2cccnc2Cl)cc1,i,0.74
CCCC(=O)Nc1c(-c2ccccc2)c(=O)c(C)nn1-c1ccc(Cl)cc1,i,0.07
Cc1ccccc1-c1nsc(SCC(=O)Nc2ccc3c(c2)OCO3)n1,i,0.25
COc1ccc(C(=O)Nc2cnn(Cc3c(F)cccc3Cl)c2)cc1OC,i,-1.8
Cc1ccc(CNC(=O)C2CCC(=O)N(Cc3cccc(C(F)(F)F)c3)C2)o1 (stereo not drawn),i,-0.64
O=C(CCCCCN1C(=O)c2ccccc2C1=O)NCCc1nc2ccccc2[nH]1,i,1.9
CCO[C@H]1OC(C(=O)NC2CC2)=C[C@@H](c2ccc(Br)cc2)[C@@H]1CCCO,i,0.96
O=C(/C=C/c1cccc([N+](=O)[O-])c1)NC(=S)Nc1ccc(CN2CCOCC2)cc1,i,-1.3
O=C(Nc1ccccc1C(=O)O)/C(=C/c1ccc(Cl)cc1Cl)NC(=O)c1ccco1,i,-0.03
COc1ccccc1CNC(=O)C(=O)NCCC1CCCCN1S(=O)(=O)c1ccccc1 (stereo not drawn),i,0.02
CCN(CC)S(=O)(=O)c1cccc(NC(=O)c2cc(-c3cccs3)nn2-c2ccccc2)c1,i,1.5

# Returning to the listing with the two entries that preceded the break.
SMILES,KCNQ2 block,KCNQ2 block baseline
Cc1ccc(C)c(NCc2ccccc2CO)c1,i,0.1
Cc1ccccc1-c1nsc(SCC(=O)Nc2ccc3c(c2)OCO3)n1,i,0.25
CCOC(=O)C1=C(C)NC(=O)C(C(N)=O)C12CCCC2 (stereo not drawn),i,0.14
COC(=O)c1ccc(-c2nn(C)c(=O)c3ccccc23)cc1,i,0.62
Cc1cc(=O)oc2cc(OCC(=O)NCCc3ccccc3)ccc12,i,-0.95
COc1ccc(C(=O)NCCCNC(=O)c2cnccn2)cc1Br,i,-0.6
Cc1ccc(C(=O)NC2CCCCNC2=O)cc1C (stereo not drawn),i,-0.14
Cc1ccnc(NC(=O)CNC(=O)c2ccccc2Br)c1,i,-0.74
O=C(N/N=C1\CC2CC=CC12)c1ccc(COc2ccccc2)cc1 (stereo not drawn),i,1.6
Cc1ccccc1N(CC(=O)N1CCCC1)S(=O)(=O)c1ccc(Cl)cc1,i,1.3
COc1ccc(/C=N/c2sc3c(c2C#N)CCN(Cc2ccccc2)C3)c(O)c1,i,1.1
COc1ccc(-c2noc(Cc3ccccc3OC)n2)cc1,i,0.84
Cc1cccc(NC(=O)c2cc3ccccc3oc2=O)c1,i,1.3
CN(C)NC(=S)NC1CCS(=O)(=O)C1 (stereo not drawn),i,-0.45
Cc1ccc(C)c(Nc2nc3c(S(=O)(=O)c4ccccc4)nnn3c3ccccc23)c1,i,1.5
Cc1ccc(C(C(=O)NC2CCCCC2)N(C(=O)c2csnn2)C2CC2)o1 (stereo not drawn),i,0.76
Cc1ccc(-c2nnn(CC(=O)N(Cc3ccco3)C(C(=O)NC(C)(C)C)c3cccs3)n2)o1 (stereo not drawn),i,1.2
CCCSc1nc(C)cc(C)c1S(C)(=O)=O,i,-0.2
O=C(NCC1COc2ccccc2O1)c1ccc(Br)s1 (stereo not drawn),-6.2*,-0.73*
CCCCCC(=O)OC(CN1CCCCC1)CN1CCCC1=O (stereo not drawn),i,0.24
CCOc1ccc(N(C)S(=O)(=O)c2ccc(-c3cc(C)no3)s2)cc1,i,0.05
NC(=O)C1CC(=O)N(c2ccc(OCc3ccccc3Cl)cc2)C1 (stereo not drawn),i,1.4
Cc1ccc(S(=O)(=O)NCC(=O)NCC(=O)OC(C(=O)NC(N)=O)C(C)C)cc1C (stereo not drawn),i,-1.1
O=C(COc1cccc2ccccc12)Nc1cc(S(=O)(=O)N2CCOCC2)ccc1N1CCOCC1,i,1.2
CSc1ccc(CN(C)CC(=O)NC(C)c2ccccc2)cc1 (stereo not drawn),i,0.42
O=C(COc1ccccc1-c1ccccc1)Nc1ccc(S(=O)(=O)NCc2ccco2)cc1,i,1.7
NC(=O)c1ccc(-c2csnn2)cc1,i,-0.95
COc1cccc(NC2=Nc3cccc4cccc2c34)c1,i,1.8
O=C(CSc1nc(COc2ccccc2)nc2ccccc12)NC1CCCC1,i,0.6
O=C(CN1CCCC1)Nc1ccccc1Cl,i,-0.2
O=C(N/N=C/c1cn(Cc2cccc(F)c2)c2ccccc12)c1cc(O)cc(O)c1,i,-1.4
C=CCNC(=O)/C(C#N)=C/c1ccccc1[N+](=O)[O-],i,-1.4
CC1(C)CC(=O)C=C(N=CC2=C(O)CC(C)(C)CC2=O)C1,i,-0.84
CCOc1cc(NC(=O)c2cccs2)c(OCC)cc1NC(=O)CCC(=O)NCc1ccccn1,i,-2.8
C=CCNC(=O)/C(C#N)=C/c1ccc(OS(=O)(=O)c2ccc(C)cc2)c(OC)c1,i,1
Cc1ccc(S(=O)(=O)Nc2ccncc2)c(C)c1N(C)S(=O)(=O)c1ccc(Cl)cc1,i,4.9
CCOc1ccc(OCC)c(NC(=O)C2CCCN(c3ncccn3)C2)c1 (stereo not drawn),i,0.4
COc1ccc2[nH]cc(CCN3C(=O)CCC3=O)c2c1,i,1.2
COc1cccc(C2CC(c3cccc(Br)c3)n3nc(N)nc3N2)c1 (stereo not drawn),i,1.1
O=C(CN1C(=O)c2ccccc2C1=O)OC(C(=O)c1ccc(Cl)cc1)c1ccccc1 (stereo not drawn),i,-1.4
COc1ccccc1S(=O)(=O)Cc1ccc(C(=O)NCC(OC)OC)o1,i,-1.5
CCCCCC(=O)Nc1cccc(-c2nc3ncccc3o2)c1,i,0.39
CCCc1nc2scc(-c3ccc(C)cc3)c2c(=O)n1N,i,0.32
Cc1noc(C)c1COc1ccc(C(=O)OC(C)C(=O)Nc2ccc(S(=O)(=O)N3CCOCC3)cc2)cc1 (stereo not drawn),i,-3.5
COc1ccc(CCC(=O)NCC(c2ccco2)N2CCc3ccccc32)cc1 (stereo not drawn),i,-1.8
Cc1cc(C)nc(NC(=O)c2c(-c3ccccc3Cl)noc2C)n1,i,-1.1
O=C1c2ccsc2SCCN1Cc1ccc(Cl)cc1Cl,i,0.87
CC1(NC(=O)CCc2nc3ccccc3c(=O)[nH]2)CCS(=O)(=O)C1 (stereo not drawn),i,-0.73
CCOC(=O)C1(Cc2cccc(OC)c2)CCN(Cc2ccc(OC)c(O)c2)CC1,i,0.28
COCc1c(C(=O)N/N=C\c2cccs2)nnn1-c1nonc1N,i,-0.12
CCC(C)C(NS(=O)(=O)c1ccc(C)cc1)C(=O)NCCCN1CCOCC1 (stereo not drawn),-5.6*,-0.8*
O=C(NC1CCCC1)C(c1ccccc1)N(Cc1ccc(F)cc1)C(=O)c1csnn1 (stereo not drawn),i,0.31
CC(NC(=O)c1ccccc1NC(=O)c1ccco1)C(=O)O (stereo not drawn),i,-0.09
CC(NC(=O)c1c(Cl)cnn1C)C1CCCO1 (stereo not drawn),i,0.19
Cc1nn(-c2ccccc2)c2sc(C(=O)OCN3C(=O)c4ccccc4C3=O)cc12,i,1.2
COc1ccc(/C=N/OCC(=O)N=Nc2c(O)[nH]c3ccc(Br)cc23)cc1,i,1.8
O=C(NCCN1CCOCC1)c1cccc(S(=O)(=O)N2CCCC2)c1,i,0.02

# An excerpt. The share of hits here may be higher or lower than overall.
